Screening data from PubChem.
HNF4A DNA FP – change in binding of human HNF4A to DNA, primary screen, biochemical, fluorescence polarization, FITC-DNA | 1 h | 360,000 compounds, 0.3% hits | activity change, % at 10 µM | Hepatocyte nuclear factor 4-alpha (Homo sapiens), P41235; in the data active = activity change above about 30%, passing the limit was not always enough;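 note: controls were the assay level and a saturating level of protein; the project sought stronger binding though the title names inhibitors; some compounds called inactive have numbers as strong as hits; positive values seem to mean higher polarization but the record does not say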
Target sequence (P41235 whole entry, looked up): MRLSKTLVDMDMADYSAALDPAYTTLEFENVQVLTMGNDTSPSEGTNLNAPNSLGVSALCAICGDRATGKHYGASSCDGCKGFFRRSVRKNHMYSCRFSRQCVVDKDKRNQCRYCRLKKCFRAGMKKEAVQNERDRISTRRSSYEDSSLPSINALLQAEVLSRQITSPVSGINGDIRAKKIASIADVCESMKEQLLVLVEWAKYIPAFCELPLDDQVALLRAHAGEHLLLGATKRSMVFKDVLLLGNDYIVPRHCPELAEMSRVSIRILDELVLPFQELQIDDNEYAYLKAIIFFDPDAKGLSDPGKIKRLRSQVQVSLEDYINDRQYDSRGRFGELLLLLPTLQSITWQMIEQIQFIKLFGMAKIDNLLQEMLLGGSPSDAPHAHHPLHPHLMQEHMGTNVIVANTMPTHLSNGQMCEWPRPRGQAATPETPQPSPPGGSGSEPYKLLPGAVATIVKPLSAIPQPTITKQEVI
RanGTP-Impb inh – inhibitors of RanGTP-importin-beta interaction, primary screen, biochemical, FRET, CFP-Ran, YFP-importin-beta, homogeneous; cell-free CFP-Ran/YFP-importin-beta FRET ratio; Ran GTPase (GTP-bound) - importin-beta complex; AID 2216, 2009; inhibition, % (concentration not given with the values); 300,000 compounds, 1.1% hits;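 active = most replicates above 15%; inconclusive = exactly half above 15%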;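 note: 0% = DMSO wells and 100% = Ran loaded with GDP instead of GTP; wells of about 40 µL received 100 nL stock; the first replicate is given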
Vif A3G – inhibitors of Vif binding to APOBEC3G peptide, primary screen, biochemical, TR-FRET, GST-Vif 1-94, biotin-A3G peptide, dose response retest (AID 1117319) | Virion infectivity factor (Human immunodeficiency virus type 1 group M subtype B (isolate … | TR-FRET GST-Vif / biotin-A3G peptide binding; higher % means a stronger effect; test concentration not given here; strong numbers were not always called active | inhibition, %; hits with a dose series show IC50 in µM | 260,000 compounds, 0.57% hits;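 active = above the screen mean plus three standard deviations and confirmed in dose response; inconclusive = results disagree or hit not tested in dose response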;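 note: Vif residues 1-94 fused to GST binding biotinylated APOBEC3G peptide 110-148; 0% = full assay without inhibitor and 100% = GST in place of GST-Vif; retest series ran down from 100 µM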
E coli growth – E. coli growth inhibition, primary screen, OD600; OD600 absorbance (test concentration not listed); 330,000 compounds, 0.21% hits; Escherichia coli growth, 23 h; stronger effect = lower value;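 active = OD600 absorbance below the run mean of sample wells minus 3.6 SD, in any replicate, cut at about 0.56 in these data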;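 note: stock transfer was 300 nL into about 60 µL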
FGF22 binding – binders of human FGF22 protein, primary screen, FGF22 synaptogenesis inhibitor project, biophysical, thermal shift, single point. Fibroblast growth factor 22 (Homo sapiens), Q9HCT0. recombinant FGF22 thermal shift, SYPRO orange fluorescence; percent of sucrose octasulfate shift, DMSO zero. calls only at 9.99 µM. 340,000 compounds, 1.5% hits;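 active = melting point raised past a set limit in the mean and every replicate; inconclusive = no clear call; three in four hits are not shown here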
MLL AF4-AF9 inh – inhibitors of AF4 peptide binding to AF9, primary screen, biochemical, AlphaScreen, biotin-AF4 peptide, FLAG-AF9, single point. inhibition, % at 10 µM. 350,000 compounds, 0.47% hits;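 active = every replicate reaching a set inhibition limit, whatever the replicate mean, cut at about 25% in these data; inconclusive = mean inhibition reaches that limit but some replicates miss it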;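 note: 0% = plate neutral control median and 100% = total signal loss; the record names both 10 and 1 µM as test concentration; the first replicate is given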
Target sequence (P42568 whole entry, looked up): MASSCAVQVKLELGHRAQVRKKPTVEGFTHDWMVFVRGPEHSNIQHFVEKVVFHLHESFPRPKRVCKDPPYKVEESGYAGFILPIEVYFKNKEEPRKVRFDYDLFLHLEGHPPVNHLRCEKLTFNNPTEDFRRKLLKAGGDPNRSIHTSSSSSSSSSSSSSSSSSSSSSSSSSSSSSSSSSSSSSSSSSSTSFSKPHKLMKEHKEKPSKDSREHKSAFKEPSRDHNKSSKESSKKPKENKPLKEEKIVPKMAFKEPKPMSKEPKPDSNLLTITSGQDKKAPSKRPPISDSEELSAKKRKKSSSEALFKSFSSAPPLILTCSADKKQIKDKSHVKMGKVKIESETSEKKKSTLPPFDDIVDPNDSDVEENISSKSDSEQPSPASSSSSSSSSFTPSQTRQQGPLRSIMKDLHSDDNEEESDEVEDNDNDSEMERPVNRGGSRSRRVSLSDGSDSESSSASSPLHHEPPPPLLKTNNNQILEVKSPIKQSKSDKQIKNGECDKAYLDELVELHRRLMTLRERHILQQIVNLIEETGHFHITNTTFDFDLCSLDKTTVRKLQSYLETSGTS
UCH37 DUB inh – inhibitors of human UCH37 deubiquitinase, primary screen, biochemical, Ub-AMC cleavage, fluorescence; purified proteasome/UCH37; inhibition, % (test concentration not listed); 330,000 compounds, 0.33% hits; AID 588478, 2011;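 active = mean of two replicates above 20%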;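 note: 0% = compound-free wells with enzyme and 100% = wells lacking proteasome; stock transfer was 100 nL into about 20 µL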
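Assay system: Proteasome-bound UCH37. Buffer or medium: pH 7.4 Tris-HCl (50 mM) with ovalbumin, ATP-MgCl2, DTT. Incubation: 30 min preincubation with enzyme, 25 min cleavage at room temperature. Measured by: fluorescence, ex 355 nm, em 460 nm. Read-out basis: percent inhibition. Control set: wells without proteasome as full block, compound-free enzyme plus substrate as uninhibited.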
The depositor's hits bear a star; i = inactive; ? = inconclusive; · = no result given. Some of the compounds tested. The share of hits here may be higher or lower than overall.

Preview (3 entries):
structure | UCH37 DUB inh | E coli growth | FGF22 binding | MLL AF4-AF9 inh | Vif A3G | RanGTP-Impb inh | HNF4A DNA FP
CC(C)CNC(=O)COc1ccc2c3c(c(=O)oc2c1)CCC3 | -17 | 0.71 | i | 0.8 | -5% | -0.9 | 2.3
COc1ccccc1CNC(=O)C1(C)Oc2cccnc2NC1=O (stereo not drawn) | -1.8 | 0.7 | i | -2.0 | 9% | 4.7 | 3.7
O=C(CCCN1C(=O)/C(=C/c2ccco2)SC1=S)Nc1ccccc1C(=O)O | 5.6 | 0.66 | · | · | ? | 0.1 | -56

The listing, from the first entry:
structure | UCH37 DUB inh | E coli growth | FGF22 binding | MLL AF4-AF9 inh | Vif A3G | RanGTP-Impb inh | HNF4A DNA FP
CC(C)CNC(=O)COc1ccc2c3c(c(=O)oc2c1)CCC3 | -17 | 0.71 | i | 0.8 | -5% | -0.9 | 2.3
COc1ccccc1CNC(=O)C1(C)Oc2cccnc2NC1=O (stereo not drawn) | -1.8 | 0.7 | i | -2.0 | 9% | 4.7 | 3.7
O=C(CCCN1C(=O)/C(=C/c2ccco2)SC1=S)Nc1ccccc1C(=O)O | 5.6 | 0.66 | · | · | ? | 0.1 | -56
CCCc1cc2c(-c3ccccc3)cc(=O)oc2cc1OCc1ccc(C(=O)O)o1 | -28 | 0.69 | · | -1.3 | 7% | -2.6 | -0.9
CCCn1nc(NC(=O)c2cccs2)c2cc3ccccc3nc21 | -57 | 0.67 | · | · | 70% | 61* | 3.4
COc1ccc(C(=O)NCC(=O)OCC(=O)c2c[nH]c3ccccc23)cc1 | · | · | i | 2.1 | · | · | -1.1
CC(=O)c1c(C)oc2c1cc(O)c1ccccc12 | 3.2 | 0.7 | i | 6.4 | 6% | 1.0 | -2.1
CCCc1ccc(-c2csc(NC(=O)C3=COCCO3)n2)cc1 | 1.0 | 0.7 | i | 7.2 | · | · | -0.2
Cc1ccc(S(=O)(=O)N2CCCCC2)cc1NC(=O)COC(=O)C1CC1 | · | · | i | -0.7 | 0% | · | 1.8
CCC(N)C12CC3CC(CC(O)(C3)C1)C2 (stereo not drawn) | -3.1 | 0.7 | · | · | 13% | 1.8 | -1.2
CC(=O)Nc1c(-c2ccc(Cl)cc2)c(=O)c2ccccc2n1C | -2.9 | 0.67 | i | -1.3 | -8% | ? | -1.4
CN(C)c1ccc(/C=N\NC(=O)CC#N)cc1 | · | · | · | 1.4 | -7% | -1.0 | 1.2
Cc1cc(C)nc(Nc2ccc(Cl)cc2C)n1 | 1.3 | 0.69 | i | 3.3 | · | 1.9 | 1.8
CCOC(=O)C1(Cc2cccc(Cl)c2)CCCN(C(=O)c2ccoc2C)C1 (stereo not drawn) | 1.3 | 0.7 | i | 3.3 | -3% | 2.7 | 2.2
O=C(c1cccc(N2CCNC2=O)c1)N1CCCC(Nc2cccc(F)c2)C1 (stereo not drawn) | 3.9 | 0.69 | i | 1.1 | · | 4.6 | 1.5
O=C1CCCC2=C1C(c1ccc(O)c(Br)c1)C1=C(CCCC1=O)N2c1ccccc1 | -12 | 0.71 | i | 7.2 | -8% | · | -1.2
CC(=O)N1CCc2ccc(S(=O)(=O)Nc3ccccc3Cl)cc21 | 4.3 | 0.64 | i | -0.8 | 3% | -0.5 | -3.0
COc1cc(C(=O)NCC(=O)OCn2nnc3ccccc3c2=O)cc(OC)c1OC | 1.1 | 0.7 | i | -1.5 | · | ? | 0.3
CCOC(=O)c1ccc2c(c1)sc(=NC(=O)c1ccco1)n2CCOC | -42 | 0.71 | · | · | -4% | 1.0 | 3.7
COC(=O)C1CCN(c2c([N+](=O)[O-])cc(C(F)(F)F)cc2[N+](=O)[O-])CC1 | 5.2 | 0.71 | · | · | -2% | 1.1 | 1.8
Cc1cc(N)ccc1NC(=O)CN1CCCC1 | 3.6 | 0.68 | i | 3.7 | -2% | 0.1 | 3.5
Cc1ccc(S(=O)(=O)NC(CC(C)C)C(=O)NCc2ccco2)cc1 (stereo not drawn) | -0.3 | 0.73 | · | · | 6% | 0.3 | 7.0
CCN(CC)C(=O)COc1c(-c2ccco2)oc2ccccc2c1=O | -93 | 0.63 | i | -21 | · | -3.0 | -0.6
CCn1nnnc1SCC(=O)N1c2ccccc2CCc2ccccc21 | 4.7 | 0.7 | · | · | ? | -0.6 | -3.5
O=C(N/N=C/c1cn(-c2ccccc2)nc1-c1ccc2c(c1)OCCO2)c1ccncc1 | · | · | · | -3.9 | -1% | 1.7 | -0.2
CCc1c(C)c(C#N)c2nc3ccccc3n2c1NCc1ccco1 | -52 | 0.78 | · | · | 7% | ? | 1.9
CCCCc1cc(=O)oc2cc(C)cc(OCC(=O)NCc3cccnc3)c12 | -79 | 0.67 | i | -2.5 | · | 0.4 | -3.4
O=C(COC(=O)/C=C/c1ccco1)NCc1ccc2c(c1)OCO2 | 3.1 | 0.72 | i | -1.5 | 17% | 3.8 | -0.7
COc1ccc(NC(C)=O)cc1S(=O)(=O)NC(Cc1ccccc1)C(=O)O (stereo not drawn) | -1.3 | 0.7 | i | 1.5 | · | -2.1 | -2.2
CCCc1nc(N)nc2c1C(=O)CC(C)(C)C2 | -3.1 | 0.7 | · | · | 6% | -1.1 | 2.2
CC(=O)c1c(C)[nH]c(C(=O)OCc2c(F)cccc2Cl)c1C | 3.0 | 0.7 | i | 2.0 | 0% | 5.0 | -1.9
O=C(CN(Cc1ccc(Cl)cc1)C(=O)CN1C(=O)COc2ccccc21)NC1CCCC1 | 2.4 | 0.69 | i | -0.1 | · | 1.6 | 10.0
CCOCC(=O)N1CCN(c2ccc(F)cc2)CC1 | 0.2 | 0.68 | · | · | 5% | -2.6 | -0.7
CCOc1ccccc1C1C(C#N)=C(N)SC(N)=C1C#N | 4.6 | 0.76 | · | · | 3% | 11 | 104
OC(c1ccccc1)c1nc(-c2csc3ccccc23)cs1 (stereo not drawn) | · | · | i | -2.4 | · | · | 1.6
O=C1NN(CCO)C(=S)Nc2ccccc21 | · | · | i | -3.0 | 0% | · | -1.6
Cc1ccc(C(=O)Nc2nnc(C)s2)o1 | 4.7 | 0.65 | · | · | 2% | 4.0 | 6.0
COc1ccc(-c2cn(-c3ccc(C)cc3)c(=O)n2CC(=O)Nc2cccc(F)c2)cc1 | 5.3 | 0.69 | · | · | 8% | 1.3 | 11
O=C(c1cccc(S(=O)(=O)N2CCCC2)c1)N1CCN(c2ccccc2)CC1 | 8.1 | 0.7 | · | · | 5% | 2.9 | -0.7
Cc1ccc(C(=O)Nc2ccc(S(=O)(=O)Nc3cnc4ccccc4n3)cc2)cc1 | -5.4 | 0.68 | i | -1.2 | 16% | 2.7 | -0.1
CN(C)CCCN=Cc1c(-c2ccccc2)[nH]n(-c2nc3ccccc3s2)c1=O | 2.3 | 0.65 | i | 3.9 | ? | 1.2 | 2.6
COc1ccccc1NC(=O)c1nnn(Cc2ccccc2)c1NC(=O)C(F)(F)F | · | · | · | · | 0% | 0.4 | 0.8
Cc1cc(C)c(S(=O)(=O)NCc2cccnc2)c(C)c1 | 5.1 | 0.66 | i | 4.5 | -16% | 1.5 | -2.9
CC(c1ccccc1)N1CC(C(=O)NC2CCCC2)CC1=O (stereo not drawn) | 2.2 | 0.73 | · | · | -1% | -8.9 | 9.5
CCOc1ccc(/C=C2\C(=O)c3ccccc3OC2c2ccccc2)cc1 (stereo not drawn) | 4.8 | 0.69 | · | · | 0% | 0.2 | -1.9
CCOC(=O)C(Sc1nnc2c3ccccc3n(CC)c2n1)C(=O)OCC | 3.0 | 0.65 | · | · | 3% | -3.8 | -3.5
Cc1c(Cl)ccc2sc(NC(=O)c3ccco3)nc12 | -0.9 | 0.78 | i | -8.5 | · | 4.9 | 5.6
CC(=O)C1C(c2ccc(Br)cc2)c2c(noc2C)CC1(C)O (stereo not drawn) | -0.4 | 0.68 | i | 2.1 | 6% | -1.6 | 7.2
O=c1[nH]cc(NCCNc2ncc(C(F)(F)F)cc2Cl)c(=O)[nH]1 | 3.5 | 0.69 | i | 0.1 | 5% | 1.1 | 3.5
COc1ccc(Cl)cc1NC(=O)NCCN1CCNC1=O | 5.2 | 0.72 | i | -5.4 | · | -4.0 | -2.3
O=c1c2ccccc2nc(-c2cccs2)n1-c1ccc2ccccc2c1 | -21 | 0.7 | i | -0.8 | 4% | 1.4 | -2.8
COC(=O)c1ccc2c(c1)sc(=NC(=O)CCS(=O)(=O)c1ccccc1)n2C | -1.6 | 0.7 | i | ? | -19% | 0.2 | 2.8
Cc1cc(C)nc(SCCCn2c(=O)[nH]c3ccccc32)n1 | 1.5 | 0.66 | · | · | 4% | ? | -1.5
Cc1cccc(C2c3[nH]c4ccccc4c3CCN2C(=O)c2cc(CC(C)C)[nH]c(=O)n2)n1 (stereo not drawn) | 3.6 | 0.65 | i | 3.5 | 4% | 0.5 | -0.8
Fc1ccccc1COc1ccc(Br)cc1CNCc1ccncc1 | 2.1 | 0.67 | · | · | 29% | -1.2 | -2.2
O=C(CSc1nnc(NC(=O)C2CCC2)s1)Nc1ccccc1F | 4.8 | 0.7 | i | -2.0 | · | 2.4 | 4.1
O=C(COc1ccccc1Cc1ccccc1)NCCCN1CCOCC1 | -1.9 | 0.66 | i | 4.9 | -6% | 1.4 | 3.1
Cc1cc(C)cc(N(CC(=O)NC2CCCC2)C(=O)CCC(=O)Nc2cc(C)on2)c1 | -0.9 | 0.63 | i | 0.9 | · | 4.3 | -0.2
CCc1cccc(C)c1NC(=O)c1ccc2nc(N3CCOCC3)sc2c1 | 0.0 | 0.77 | i | -0.4 | · | -3.3 | 4.9
Cc1ccc(Nc2nnc(SCC(=O)Nc3cc(C(=O)O)ccc3C)s2)c(C)c1 | 4.5 | 0.67 | i | -0.8 | · | -1.4 | 0.0

Continued:
structure | UCH37 DUB inh | E coli growth | FGF22 binding | MLL AF4-AF9 inh | Vif A3G | RanGTP-Impb inh | HNF4A DNA FP
C[n+]1c(-c2ccccc2)sc([S-])c1-c1ccccc1 | 4.3 | 0.61 | i | 12 | · | 1.4 | -0.8
Cc1cnc(C(=O)OCC(=O)NC(C)C)cn1 | 2.9 | 0.7 | · | · | 15% | ? | 2.9
Cc1cc(C)c(C#N)c(SCC(=O)c2cc(C)n(CCc3ccccc3)c2C)n1 | -0.9 | 0.84 | · | · | ? | 12 | 3.5
COc1ccc(S(=O)(=O)N2CCCCC2)cc1N(C)S(=O)(=O)c1ccccc1 | 1.4 | 0.65 | i | -0.3 | · | 5.0 | -4.1
O=C(CCN1C(=O)S/C(=C\c2cccs2)C1=O)Nc1nccs1 | 5.1 | 0.71 | i | 4.0 | -6% | 0.3 | 4.3
COc1ccccc1-c1nc(C#N)c(N2CC(C)CC(C)C2)o1 (stereo not drawn) | -89 | 0.67 | i | 2.5 | -4% | 1.6 | 1.2
C[C@@H]1CNC(=O)c2c(C(=O)Nc3ccc(CNC(=O)OC(C)(C)C)cc3)ncn21 | · | · | i | 1.0 | -3% | · | 0.0
